GIV-Gai inh: GIV-Galpha-i interaction inhibition; AID 1224905; P08753; 0.42% of 210,000 active; Galpha-i3/FITC-GIV peptide fluorescence polarization, 90 min; stronger effect = lower value; scaled: aluminum fluoride 0%, vehicle 100%; percent of control (FP), % (no concentration beside the values);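 active = replicate mean at 85% of control or lower, very high polarization wells dropped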;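 note: wells of about 15 µL received 100 nL stock; the first replicate is given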
Target sequence (P08753 whole entry, looked up): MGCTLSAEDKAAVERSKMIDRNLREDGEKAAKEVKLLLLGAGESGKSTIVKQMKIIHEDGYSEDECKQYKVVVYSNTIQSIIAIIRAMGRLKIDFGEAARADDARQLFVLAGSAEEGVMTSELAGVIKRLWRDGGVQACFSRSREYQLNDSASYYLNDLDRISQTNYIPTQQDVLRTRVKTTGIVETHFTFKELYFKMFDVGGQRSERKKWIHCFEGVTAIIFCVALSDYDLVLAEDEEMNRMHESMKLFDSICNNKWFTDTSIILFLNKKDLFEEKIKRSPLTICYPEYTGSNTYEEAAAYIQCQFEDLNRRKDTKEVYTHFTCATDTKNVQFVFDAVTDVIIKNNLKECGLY
HCMV UL50-53 inh: disrupts HCMV UL50-UL53 complex binding; inhibition, % (concentration not given with the values); AID 1918969; 0.15% of 190,000 active; HTRF UL50-UL53 interaction, normalized percent inhibition;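 active = both replicates at 50% or more, plus weaker picks with an unusually low signal ratio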;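 note: stock transfer was 100 nL into about 20 µL; 0% = negative control wells and 100% = wells with untagged competitor protein; inactives centre near -12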
Sa growth 42C: blocks Staphylococcus aureus growth; AID 720641; relative growth, % (test concentration not listed); 0.53% of 170,000 active; S. aureus RN4220 growth, OD600, 20 h, 42 °C; stronger effect = lower value;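 active = growth at 42 °C up to 50% and 20 or more points under that at 30 °C, or under 10% at both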;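 note: 300 nL library stock went into each well; scaled to the means of positive and negative controls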
Sa growth 42C second temp: recorded beside Sa growth 42C, whose call it bears; relative growth, %; measured here: growth at 30 °C;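 optical density after 20 h as mean of two plates; 100% = untreated growth and lower means inhibition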
An asterisk follows results filed as active; . = no result given; & = joins results of further samples.

1: CCOc1cc(C2Nc3ccccc3NC3=C2C(=O)CC(c2ccc(OC)cc2)C3)cc(Cl)c1O (stereo not given)
2: CC(C)NC(=O)c1ccc2ccccc2n1
3: Cc1cc(N=NC(=O)c2ccccc2)ccc1O
4: COc1ccc(NC(=O)Cn2c3ccccc3c(=O)c3cc(C)ccc32)cc1Cl
5: COc1ccc(-n2c(CC#N)nnc2SCc2c(C)c(C)c(C)c(C)c2C)cc1
entry no.	1	2	3	4	5
GIV-Gai inh	101	.	101	104	95
HCMV UL50-53 inh	-19	-21	-40	-14	-21
Sa growth 42C	.	101	0.6*	.	86
Sa growth 42C second temp	.	91	0.2*	.	91

6: O=C(COC(=O)c1ccco1)NC12CC3CC(CC(C3)C1)C2
7: O=C(NCCc1ccccc1)C1CCN(Cc2cc3ccccc3n2Cc2cccc(Cl)c2)CC1
8: COc1ccc(-n2c(=O)[nH]cc(C(=O)Nc3ccc(S(N)(=O)=O)cc3)c2=O)cc1
9: O=C(O)CCCNc1n[nH]c(=O)[nH]c1=O
10: Cc1cc(C)cc(Nc2cc(C)nc3nc(-c4ccco4)nn23)c1
entry no.	6	7	8	9	10
GIV-Gai inh	.	98	101	100	104
HCMV UL50-53 inh	-28	.	-3	.	.
Sa growth 42C	140	102	.	105	85
Sa growth 42C second temp	82	73	.	84	72

11: O=C(COc1ccccc1)NCc1nc2ccccc2[nH]1
12: CN(C)CCN(Cc1ccccc1)S(=O)(=O)c1ccc2[nH]c(=O)ccc2c1
13: Cc1ccc(N2CCN(C(=O)NCc3noc4ccc(C)cc34)CC2)c(C)c1
14: Cc1cc(C(=O)Nc2nc3c(s2)Cc2ccccc2-3)no1
15: Cc1ccccc1N=Cc1c(O)[nH]c2ccccc12
entry no.	11	12	13	14	15
GIV-Gai inh	107&102	102	103	105	107
HCMV UL50-53 inh	18&-30	.	.	-10	.
Sa growth 42C	69	97	100	87	127
Sa growth 42C second temp	90	82	89	91	91

16: Cc1c(Cl)cccc1NC(=O)CC(NCCN1CCOCC1)C(=O)O (stereo not given)
17: Cc1nc(Nc2ccc(NS(=O)(=O)c3ccccc3)cc2)cc(N(C)C)n1
18: COc1cccc2sc(N(Cc3cccnc3)C(=O)C3CCCCC3)nc12
19: Cc1ccc(Cl)cc1NC(=O)C1CCN(C(=O)c2cnn(-c3ccccc3)c2-n2cccc2)CC1
20: CCN(Cc1ccccc1)C(=O)CSc1nc2nc(C)cc(C)n2n1
entry no.	16	17	18	19	20
GIV-Gai inh	100	100	102	105	104
HCMV UL50-53 inh	-13	-14	.	0	2
Sa growth 42C	95	.	72	97	98
Sa growth 42C second temp	94	.	25	85	85

21: COc1ccc(C(O)C(Nc2ccccc2)c2nc3ccccc3n2C)cc1 (stereo not given)
22: Cc1cc(-c2ccc(C)c(S(=O)(=O)N(C(C)C)C3CCCCC3)c2)on1
23: O=C(NCCc1ccccc1)C(=O)Nc1cccc(Br)c1
24: CCCOc1ccccc1C1Oc2nc(SCC)nnc2-c2ccccc2N1C(C)=O (stereo not given)
25: CN1CCN(C(=O)CN2C(=O)/C(=C/c3ccccc3)Sc3ccccc32)CC1
entry no.	21	22	23	24	25
GIV-Gai inh	101	105	108	105	102
HCMV UL50-53 inh	.	.	-2	-34	-60
Sa growth 42C	118	85	107	.	107
Sa growth 42C second temp	83	91	84	.	92

26: O=C(c1cnc2sccn2c1=O)N1CCN(Cc2ccccc2)CC1
27: Cc1cccc(NC(=O)C(C)C(=O)c2ccccc2)c1 (stereo not given)
28: CC(Nc1nc(Nc2ccc(F)cc2)nc(SCC(=O)Nc2ccc(F)cc2)n1)c1ccccc1 (stereo not given)
29: CC(C)S(=O)(=O)c1csc(C(=O)N/N=C/C(C)(C)C)c1-n1cccc1
30: COCCNC(=S)c1ccc(N(C)C)cc1
entry no.	26	27	28	29	30
GIV-Gai inh	102	.	103	106	104
HCMV UL50-53 inh	-1	6	.	-16	-7
Sa growth 42C	.	87	101	93	101
Sa growth 42C second temp	.	95	65	91	97

31: Cc1cc(N2CCC(C(=O)Nc3cccnc3Cl)CC2)n2nc(C)c(-c3ccc(Cl)cc3)c2n1
32: c1ccc(CCc2ccccn2)nc1
33: Cc1cc(C)n(-c2nc3ccccc3nc2Nc2ccc(CC(=O)O)cc2)n1
34: O=C(/C=C/c1ccccc1)N(c1ccccn1)C1CCCCC1
35: N#Cc1cnc(Sc2nnc(-c3ccco3)n2-c2ccccc2)nc1N
entry no.	31	32	33	34	35
GIV-Gai inh	99	.	107	108	101
HCMV UL50-53 inh	.	2	-10	9	-14
Sa growth 42C	80	106	100	103	91
Sa growth 42C second temp	91	104	85	84	88

36: Cc1oc2ccc(O)c(CN3CCCC3)c2c1C(=O)Nc1ccc(C(C)C)cc1
37: CC(C)(C)N1C(=O)NC(=O)/C(=C\c2cn(Cc3ccccc3)c3ccccc23)C1=O
38: CC(C)C(NC(=O)c1c(F)cccc1F)C(=O)N1CCN(S(=O)(=O)c2ccc(F)cc2)CC1 (stereo not given)
39: CN(CCc1ccccn1)S(=O)(=O)c1cccc(Cl)c1
40: CCOc1ccc2nc(-n3c(C)ccc3C)sc2c1
entry no.	36	37	38	39	40
GIV-Gai inh	99	105	.	101	.
HCMV UL50-53 inh	-13	.	-26	9	13
Sa growth 42C	108	123	90	104	84
Sa growth 42C second temp	81	96	89	95	98

41: O=C(COC(=O)c1ccccn1)NC12CC3CC(CC(C3)C1)C2
42: CC(C)(C)c1ccc(C(=O)Nc2onc3c2CCCC3)cc1
43: Cc1nsc(N)c1C(=O)OCc1ccc(C#N)cc1
44: COc1cccc(CNC(=O)c2cc(C(C)C)[nH]n2)c1
45: COC(=O)c1cc(S(=O)(=O)NCCc2ccccc2)cn1C
entry no.	41	42	43	44	45
GIV-Gai inh	.	104	.	101	102
HCMV UL50-53 inh	-33	-23	4	-6	.
Sa growth 42C	104	102	58	75	85
Sa growth 42C second temp	90	87	97	75	71

46: Cc1ccccc1N(CC(=O)Nc1sccc1C#N)S(C)(=O)=O
47: Cn1c(=O)c2sccc2n2c(CCCC(=O)Nc3ccccc3)nnc12
48: Cc1ccc(Cl)cc1N1CCN(C(=O)CCNS(=O)(=O)c2ccc3c(c2)CCN3C(=O)C2CC2)CC1
49: CCCCN(Cc1ccco1)C(=O)c1cc2c(=O)oc3ccc(C)cc3c2s1
50: CCSc1ncc2c(=O)n(CC(=O)Nc3ccc(C)cc3C)cnc2n1
entry no.	46	47	48	49	50
GIV-Gai inh	.	98	107	105	104
HCMV UL50-53 inh	-17	.	.	.	-9
Sa growth 42C	101	78	101	96	.
Sa growth 42C second temp	85	83	84	84	.

51: N#CC(/C(=N/S(=O)(=O)c1cccs1)c1ccccc1)c1nnc(N2CCOCC2)n1-c1ccccc1 (stereo not given)
52: Cc1cc(C)nc(SCC(=O)OCC(=O)N2CCN(c3ccccc3)CC2)n1
53: O=C(OC(c1ccc2c(c1)OCO2)c1nccc2ccccc12)c1ccco1 (stereo not given)
54: O=C(CCN1C(=O)/C(=C/c2cccc(Br)c2)SC1=S)Nc1ccccn1
55: CCOc1cccc(/C=C2/SC(=Nc3ccccc3Cl)NC2=O)c1O
entry no.	51	52	53	54	55
GIV-Gai inh	.	.	.	101	107
HCMV UL50-53 inh	-22	-12	-1	-7	-31
Sa growth 42C	86	104	122	.	.
Sa growth 42C second temp	90	90	99	.	.

56: Cc1ccn2c(CO)c(-c3ccccc3)nc2c1
57: Cc1nc(-c2ccc(F)cc2)sc1CCNC(=O)c1ccc(C(C)(C)C)cc1
58: CCCn1c(=O)c2sccc2n2c(=O)[nH]nc12
59: O=C(O)c1ccc2c3c(cccc13)CC2
60: Cc1cccc2cc(CN(C(=O)C3CC3)C3CCCC3)c3nnnn3c12
entry no.	56	57	58	59	60
GIV-Gai inh	105	102	102	100	101
HCMV UL50-53 inh	-21	.	-16	-40	-15
Sa growth 42C	.	91	.	114	107
Sa growth 42C second temp	.	92	.	84	106

61: Nc1cc(-c2ccc(I)cc2)[nH]n1
62: O=C(CC1CCCCC1)N1CCOCC1
63: Cc1nc2c(-c3ccccc3)c(C)nn2c(C)c1CC(=O)NC(C)CCc1ccco1 (stereo not given)
64: O=C(NC1CC1)c1ccc2c(c1)N(Cc1ccccc1)C(=O)CS2=O (stereo not given)
65: O=C(CCS(=O)(=O)c1cc2c(cc1Cl)NC(=O)CO2)NCc1ccccc1
entry no.	61	62	63	64	65
GIV-Gai inh	107	105	105	107&98	103
HCMV UL50-53 inh	-3	-17	10	16&-17	.
Sa growth 42C	155	106	104	98	97
Sa growth 42C second temp	51	76	80	96	100

66: COC(=O)C1=C(C)NC2=C(C(=O)CC(c3ccccc3)C2)C1c1cc(Br)c(O)c(OC)c1 (stereo not given)
67: CN(C)c1ccc(C(CNC(=O)c2c(F)cccc2Cl)N2CCOCC2)cc1 (stereo not given)
68: CCOC(=O)c1ncoc1-c1ccc(Cl)cc1Cl
69: Oc1c(C(Nc2ccc(Cl)cc2)c2cccnc2)ccc2cccnc12 (stereo not given)
70: CC(=O)SC1CC(=O)N(c2ccc(C(C)(C)C)cc2)C1=O (stereo not given)
entry no.	66	67	68	69	70
GIV-Gai inh	99	102	106	103	103
HCMV UL50-53 inh	-12	.	-31	-61	-16
Sa growth 42C	.	75	109	.	119
Sa growth 42C second temp	.	89	88	.	91

71: CC(C)c1nn2cc(-c3ccc(Br)cc3)nc2s1
72: CCCC(C)C1C(C#N)=C(N)Oc2cc(N)ccc21 (stereo not given)
73: COc1cccc2c1oc(=O)c1c(NC(C)=O)nc(-c3ccccc3)nc12
74: CSc1ccc(/C=C2/SC(=O)N(CNc3ccccc3)C2=O)cc1
75: O=C(CSc1nc2sccc2c(=O)n1-c1ccccc1)N1CCCC1
entry no.	71	72	73	74	75
GIV-Gai inh	106	.	110	98	.
HCMV UL50-53 inh	1	-9	3	.	-18
Sa growth 42C	107	94	89	54	89
Sa growth 42C second temp	89	97	98	18	86

Record cards, as listed above. Screens in order: GIV-Gai inh	HCMV UL50-53 inh	Sa growth 42C	Sa growth 42C second temp
`COc1cccc2c1oc(=O)c1c(NC(C)=O)nc(-c3ccccc3)nc12` is listed with 110	3	89	98
`COc1ccc(C(O)C(Nc2ccccc2)c2nc3ccccc3n2C)cc1` (stereo not given) is listed with 101	.	118	83
`O=C(COC(=O)c1ccccn1)NC12CC3CC(CC(C3)C1)C2` is listed with .	-33	104	90
`Cc1ccn2c(CO)c(-c3ccccc3)nc2c1` is listed with 105	-21	.	.

Further entries:
76: COC(=O)c1c(C)nc(C)c2c(=O)oc3ccccc3c12
77: CC(=O)NCc1ccc(C(=O)CSc2nnc(C)n2Cc2ccccc2)o1
78: COC(=O)CCc1c(C)c(C(=O)c2ccco2)c2ccccn12
79: O=C(CN1C(=O)c2ccccc2S1(=O)=O)N1CCN(c2cccc(Cl)c2)CC1
80: O=C(NCCSc1c(-c2ccccc2)[nH]c2ccccc12)c1ccc(N2C(=O)CCC2=O)cc1
entry no.	76	77	78	79	80
GIV-Gai inh	.	.	.	98	103
HCMV UL50-53 inh	-5	-3	-76	.	.
Sa growth 42C	82	90	104	104	96
Sa growth 42C second temp	102	93	81	91	78

81: CC1c2nc3ccccc3n2C(CC(=O)NC2CC2)C(=O)N1Cc1ccccc1 (stereo not given)
82: O=C(NCc1ccccc1)c1ccc2c(c1)N(Cc1ccccc1)C(=O)c1ccccc1S2=O (stereo not given)
83: CCOc1ccccc1NC(=O)c1c(NC(=O)c2ccncc2)sc2c1CCC(C(C)(C)C)C2 (stereo not given)
84: CCN(CC)CCNC(=O)c1cc(C)nc2ccc(Br)cc12
85: Oc1ccc(C=NCC2CCCN3CCCCC23)c(O)c1 (stereo not given)
entry no.	81	82	83	84	85
GIV-Gai inh	101	100	103	107	.
HCMV UL50-53 inh	-10	3	36	-49	-13
Sa growth 42C	97	95	111	.	86
Sa growth 42C second temp	90	93	102	.	59

86: CCc1nn(CC(=O)NCCN2CCN(c3cccc(C)c3C)CC2)c(=O)c2cc3sccc3n12
87: COc1ccc(CNC(=O)c2cc3cc4ccc(C)cc4nc3o2)cc1
88: CC(NC(=O)C1COc2ccccc2O1)c1ccccc1F (stereo not given)
89: O=C1CCC(C(=O)O)NC(=O)N1 (stereo not given)
90: Cc1cc(C)nc(SCC(N)=O)n1
91: O=C(c1cnn(S(=O)(=O)c2ccccc2)c1)c1cc(Cl)ccc1O
entry no.	86	87	88	89	90	91
GIV-Gai inh	98	102	.	100	102	.
HCMV UL50-53 inh	-18	-20	10	-32	-9	-27
Sa growth 42C	96	97	100	85	93	78
Sa growth 42C second temp	83	89	88	81	79	91

Screening results deposited in PubChem BioAssay by ICCB-Longwood Screening Facility, Harvard Medical School.
